High-throughput results (PubChem)
LASV entry inh – Lassa virus entry inhibition. Potency, µM (titrated, usually from 37.9 µM), inactives show at the top dose activity change, negative = inhibition, most hits filed as inhibitors. actives 1.2% (n = 300,000). Lassa virus pseudotype entry inhibition, cell reporter; control for the full effect not named in the record. AID 540256; active means well fitted inhibition curve with a large enough effect; inconclusive means small, poorly fitted or top-dose-only effect, or effect the other way; inactive means flat fitted curve, though single readings scatter; tested in HEK293 cells; note: % is set by controls: 0 for no effect and ±100 for the full control effect; nearly all actives have a fitted effect of over 50% in size; luciferase read-out
Cruzain inh Det – blocks cruzain activity in presence of Triton detergent | AID 1478 | Potency, µM, for inactives: max response, negative = inhibition, usual class: inhibitors | actives 0.43% (n = 200,000) | purified cruzain, Z-FR-AMC fluorescence, 0.01% Triton; active = well fitted curve in the direction sought with a large enough effect; inconclusive = small, poorly fitted or top-dose-only effect, or another doubt; inactive = no such curve, though single readings can be large; an effect the other way counts as inactive or inconclusive;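 note: plate controls were neutral wells for no effect and buffer without enzyme for full effect; nearly all actives have a fitted effect of over 40% in size; top concentration of the series not given in the record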
Target sequence (P25779 123-467 limits assumed): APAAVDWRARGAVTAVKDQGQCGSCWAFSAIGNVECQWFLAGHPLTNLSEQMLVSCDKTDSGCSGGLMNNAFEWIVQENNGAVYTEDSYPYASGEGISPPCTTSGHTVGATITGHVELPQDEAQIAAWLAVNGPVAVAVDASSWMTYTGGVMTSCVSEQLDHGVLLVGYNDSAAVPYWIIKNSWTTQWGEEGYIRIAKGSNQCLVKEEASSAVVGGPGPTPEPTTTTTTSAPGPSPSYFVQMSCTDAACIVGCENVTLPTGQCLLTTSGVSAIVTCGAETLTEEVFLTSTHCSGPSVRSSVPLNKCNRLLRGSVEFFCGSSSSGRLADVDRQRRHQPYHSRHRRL
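Detergent-containing run (0.01% Triton X-100) in acetate buffer pH 5.5 with 5 mM DTT: enzyme at 1.5 nM final, 15 min compound preincubation at room temperature, then 2 uM Z-FR-AMC substrate. Activity taken as 60 s fluorescence increase at 360/450 nm.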
NS1 inh – inhibitors of influenza NS1 protein function; S. cerevisiae slowed by influenza A NS1, growth recovery by OD600; Potency, µM (top dose mostly 46.1 µM), for the others: top-dose activity, positive = more growth; actives 0.4% (n = 270,000); AID 2326; note: actives are rising curves; nearly all actives have a fitted effect of over 50% in size
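S. cerevisiae expressing influenza A NS1, grown in glucose, washed, then diluted 1:100 into pH 6.0 -URA galactose medium with 23 nl compound. Growth recovery read as OD600; NS1-free strain serves as control.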
Cruzain noTriton – blocks cruzain activity in detergent-free assay; actives 2.3% (n = 200,000); AID 1476; Potency, µM, for inactives: max response, negative = inhibition, usual class: inhibitors; P25779; purified cruzain, Z-FR-AMC fluorescence, no detergent; active = well fitted curve in the direction sought with a large enough effect; inconclusive = small, poorly fitted or top-dose-only effect, or another doubt; inactive = no such curve, though single readings can be large; an effect the other way counts as inactive or inconclusive;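 note: plate controls were enzyme without inhibitor for no effect and buffer without enzyme for full effect; nearly all actives have a fitted effect of over 40% in size; top concentration of the series not given in the record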
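Purified cruzain at 1.5 nM, pre-incubated 15 min with compound at room temperature in 100 mM sodium acetate pH 5.5, 5 mM DTT, 0.00005% Triton X-100. Reaction started with 2 uM Z-FR-AMC; AMC fluorescence increase over 60 s gives rate.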
RE007 growth inh – less growth of the S. pombe RE007 Vpr strain; S. pombe RE007 Vpr strain, BacTiter-Glo ATP luminescence, 24 h; control for the full effect not named in the record; Potency, µM (highest dose often 92.2 µM), without a hit: at the highest dose activity change, negative = less growth; actives 0.21% (n = 360,000); active = well fitted falling curve with a large enough effect; inconclusive = small, poorly fitted or top-dose-only effect; inactive = no such curve, though single readings can be large or run the other way;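 note: % is set by controls: 0 for no effect and ±100 for the full control effect; nearly all actives have a fitted effect of over 50% in size; the assay follows cell death caused by Vpr and the record does not say whether a fall means rescue or toxicity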
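Fission yeast RE007 carrying one integrated HIV-1 vpr copy, seeded at OD 0.01 in PMG+AL medium with 23 nL pinned compound. Grown 24 h at 30 degrees; viability read by BacTiter-Glo luminescence after 5 min.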
SARS PLP yeast – blocks SARS-CoV papain-like protease in a yeast assay. S. cerevisiae expressing SARS-CoV PLpro, growth rescue; control for the full effect not named in the record. Potency, µM (top dose mostly 32.9 µM), inactives show at the top dose activity, positive = growth rescue. actives 0.19% (n = 330,000); note: 0% is about no effect; nearly all actives have a fitted effect of over 55% in size; growth read by luminescence after 48 h
StopGo reporter – lowers the luciferase signal of an FMDV 2A StopGo reporter. human cells with a luciferase reporter of 2A StopGo recoding; control for the full effect not named in the record. actives 1.2% (n = 410,000). Potency, µM (titrated, usually from 57.9 µM), without a hit: at the highest dose signal change, negative = less light; active = well fitted falling curve with a large enough effect; inconclusive = small, poorly fitted or top-dose-only effect; inactive = no such curve, though single readings can be large or run the other way; tested in HEK293T cells; note: % is set by controls: 0 for no effect and ±100 for the full control effect; nearly all actives have a fitted effect of over 45% in size; luciferase light after 4 h
Marburg entry inh – Marburg virus entry inhibition; Marburg virus pseudotyped entry inhibition, cell reporter; control for the full effect not named in the record; about a third of the inactives were read at about 46 µM; Potency, µM (doses to about 37.8 µM), inactives show at the highest dose activity change, negative = inhibition, usual class: inhibitors; actives 1.8% (n = 300,000); active = well fitted inhibition curve with a large enough effect; inconclusive = small, poorly fitted or top-dose-only effect, or effect the other way; inactive = flat fitted curve, though single readings scatter; tested in HEK293 cells; about a fifth of its hits are not listed in these tables; note: % is set by controls: 0 for no effect and ±100 for the full control effect; luciferase read-out
Starred values were filed as active, the others as inactive; ? = inconclusive; . = not tested or not shown; & = joins results of further samples; [ ] = remark or other dose. Unless noted, calls come from the whole dose curve; as a rule, active means well fitted rising curve with a large enough effect; inconclusive means small, poorly fitted or top-dose-only effect; inactive means no such curve, though single readings can be large or run the other way. Potency is the fitted concentration of half-maximal effect.

SMILES	LASV entry inh	Cruzain inh Det	NS1 inh	Cruzain noTriton	RE007 growth inh	SARS PLP yeast	StopGo reporter	Marburg entry inh
COCCN1CCN(C(=O)C2CCC(=O)N(CCc3ccccc3)C2)CC1 (configuration not stated)	1%	.	4%	.	2%	.	-20%	?
CC(C)Sc1ncc(Cl)c(C(=O)N(Cc2ccc(N(C)C)cc2)C2CCS(=O)(=O)C2)n1 (configuration not stated)	-17%[46.1 µM]	-5.5%	.	?	.	.	-23%	?
CCOc1ccc(NC(=O)CN(c2ccc(C)cc2)S(=O)(=O)c2cccs2)cc1	-20%[46.1 µM]	-0.9%	.	-15%	.	.	5%	-2%[46.1 µM]
Cc1nn2c3c(cnc2c1-c1ccccc1)C(=O)CC(c1ccccc1)C3 (configuration not stated)	-2%	2.0%	3%	-2%	-3%	3%	10%	-12%
CC1=C/C(=N\OS(=O)(=O)c2ccccc2)C=CC1=O	-9%	-20%	-47%	-16%	-10%	-128%	16µM*	?
CC1CN(C(=S)Nc2ccc(F)cc2F)CC(C)O1 (configuration not stated)	.	.	-2%	.	-10%	-1%	-1%	.
CCN(C(=O)CSc1nc2ccccc2o1)C1CCS(=O)(=O)C1 (configuration not stated)	1%	.	.	.	-18%	-2%	19%	?
CCCOc1ccc(/C=C/C(=O)OCC(=O)N(C)c2c(N)n(Cc3ccccc3)c(=O)[nH]c2=O)cc1OCC	-23%	.	.	.	-2%	-1%	-12%	?
O=C(CC1(O)C(=O)c2ccccc2C1=O)c1ccccc1	-2%	-1.3%	16%	-5%	0%	-22%	1%	?
CSCCC(N=Cc1c(O)n(-c2ccc(Br)cc2)c(=O)[nH]c1=O)C(=O)OC(C)(C)C (configuration not stated)	5%	-3.8%	4%	3%	-12%	8%	?	6%
Cc1ccc(-c2nnc(SCC(=O)N3CCCc4ccccc43)o2)cc1	-4%[46.1 µM]	-1.7%	.	-3%	.	.	8%	?
Cc1ccc(NC(=O)C2CCN(S(C)(=O)=O)CC2)cc1Cl	.	.	9%	.	-1%	0%	-9%	.
CC(=O)N(Cc1ccccc1)Cc1nc2sc(C)c(C)c2c(=O)[nH]1	-23%	.	-1%	.	-11%	1%	-28%	25%[46.1 µM]
Cn1c(=O)c2c(nc(CN3CCOCC3)n2CCCc2ccccc2)n(C)c1=O	2%	-3.5%	-5%	20%	1%	21%	-13%	7%&7%
COc1cc2[nH]c(=O)n(C3CCCCC3)c(=O)c2cc1OC	5%	0.7%	2%	-1%	3%	3%	-10%	16%
COC(=O)c1cnc(N2CCN(c3ccccc3OC)CC2)c2ccccc12	-12%[46.1 µM]	3.0%	.	6%	.	.	-11%	.
COc1cc2c(cc1OC)C(C)N(C(=O)c1c(-c3ccccc3)noc1C)CC2 (configuration not stated)	.	.	-3%	.	4%	-3%	-16%	.
COc1ccc(C(=O)/C=C/c2ccccc2)c(O)c1	.	.	-14%	.	?	-14%	-1%	.
CCOC(=O)/C(C#N)=C\N(C)C	1%	4.7%	6%	-1%	3%	-7%	-1%	?
O=C(CCCOc1ccccc1)Nc1cccc([N+](=O)[O-])c1	4%	.	0%	.	31%	1%	-4%	-2%[46.1 µM]
CCOCCn1c(C)c(C(=O)OCC)c2cc(O)c3ccccc3c21	-15%	.	.	.	11%	5%	17%	?
COc1ccc(OC)c(S(=O)(=O)N/N=C\c2ccc3c(c2)OCO3)c1	12%[46.1 µM]	.	-8%	.	8%	2%	50%[activator]	5%[46.1 µM]
COc1ccc(NC(=O)C2=C(C)Nc3nc(SCc4ccc(C)cc4C)nn3C2c2cccc(OC)c2OC)cc1 (configuration not stated)	-14%[46.1 µM]	-2.3%	.	4%	.	.	29%	.
CC(OC(=O)c1ccc(S(=O)(=O)N(C)C)cc1)C(=O)Nc1ccc(Cl)cn1 (configuration not stated)	12%	.	.	.	3%	1%	-25%	29%[46.1 µM]
Cc1cccc(C(=O)Nc2ccc3c(c2)ncn3C)c1	?	.	-4%	.	-5%	0%	32%[activator]	?
(further entries)
SMILES	LASV entry inh	Cruzain inh Det	NS1 inh	Cruzain noTriton	RE007 growth inh	SARS PLP yeast	StopGo reporter	Marburg entry inh
O=C(Nc1ccccc1F)c1ccc2c(c1)OCO2	-21%[46.1 µM]	.	-18%	.	-21%	-4%	28%	?
OCCOCCNc1ncnc2c1cnn2-c1ccccc1	-9%	-1.2%	6%	?	12%	8%	21%	6%&6%
CC(Sc1nnc(COc2ccc(Cl)cc2)o1)C(=O)Nc1ccc(N2CCOCC2)cc1 (configuration not stated)	2%	.	.	.	-11%	-1%	-4%	1%
O=C(CSc1nnc(CNc2ccc(F)cc2)o1)N1c2ccccc2Sc2ccccc21	?	-2.8%	-9%	?	-4%	-11%	?	?
CCOC(=O)CNC(=O)CSc1ncccc1-c1nc2ccccc2[nH]1	?	.	4%	.	4%	-4%	-1%	-1%[46.1 µM]
CC(=O)Nc1ccc(S(=O)(=O)NCCC(=O)OCc2ccc([N+](=O)[O-])cc2)cc1	-7%	.	-16%	.	-15%	4%	-17%	-10%
O=C(O)c1ccccc1C(=O)OC1CCCC2CCCC21 (configuration not stated)	9%	.	.	.	3%	.	-11%	6%
Cc1ccc2oc(=O)n(Cc3ccc(OC(C)C)cc3)c2c1	.	.	-26%	.	-8%	-8%	-9%	.
CC1(C)Cc2c(sc3nc(SCC(=O)NCc4ccccc4)n(-c4ccccc4)c(=O)c23)CS1	-18%	-4.7%	21%	9%	-4%	2%	-1%	22%[46.1 µM]
CCCn1c(=O)c2ccccc2n2c(SCc3c(C(=O)OCC)oc4ccccc34)nnc12	?	-0.9%	-2%	6%	-8%	7%	-5%	?
C=CCN1C(=O)C(CC(=O)Nc2ccccc2)SC1=Nc1c(C)n(C)n(-c2ccccc2)c1=O (configuration not stated)	9%	4.6%	12%	1%	28%	9%	6%	0%
CCC(=O)Nc1nnc(CCc2ccccc2)s1	9%	-3.2%	-10%	-1%	0%	6%	1%	3%
CC12CCC(=O)N1C(C(=O)NCc1ccccc1F)CS2 (configuration not stated)	5%	.	.	.	-7%	-4%	-12%	6%[46.1 µM]
O=C(Cn1c(=O)c2ccccc2n(CC(=O)Nc2ccc(Cl)cc2)c1=O)NCCc1ccccc1	?	-0.2%	.	13µM*	.	.	-7%	?
Cc1ccc(CCNC(=O)CN2CCN(Cc3ccc(Cl)cc3)C2=O)cc1	-3%[46.1 µM]	-3.7%	.	?	.	.	-13%	1%[46.1 µM]
CCc1ccc(S(=O)(=O)Nc2c(NC3CCCCC3)c3ccccc3oc2=O)cc1	7%[46.1 µM]	.	-1%	.	0%	-1%	-4%	-28%[46.1 µM]
CC1=NN(C(N)=S)C(=O)C1N=Nc1c(Cl)cc([N+](=O)[O-])cc1Cl (configuration not stated)	.	.	-115%	.	-15%	-14%	-12%	.
CCc1ccccc1NC(=O)CN(c1cc(C(F)(F)F)ccc1Cl)S(=O)(=O)c1ccccc1	-13%[46.1 µM]	-8.5%	.	-6%	.	.	8%	?
CSc1nc(Oc2ccccc2)c2sccc2n1	2%	-6.3%	-15%	8%	-20%	-5%	-9%	-18%
O=C(O)Cn1cc(C(=O)C(F)(F)F)c2ccccc21	-2%[46.1 µM]	.	3%	.	9%	3%	11%	?
CCCc1cc(=S)n2c([nH]c3ccccc32)c1C#N	6%	.	-1%	.	-2%	-5%	23%	4%[46.1 µM]
CC(C)(C)SCCNS(=O)(=O)c1ccccc1	7%	10%	5%	-5%	0%	0%	.	11%
COc1cccc(NC(=O)CN(C)C(=O)C(Sc2ccccc2)c2ccccc2)c1 (configuration not stated)	?	.	.	.	10%	-1%	?	?
Cc1ccc(-c2csc(N3CCN(c4cc5c(cc4Cl)nc(-c4ccncc4)n5CCN4CCCCC4)CC3)n2)cc1	.	.	-7%	.	?	-16%	-15%	-1%
Cc1cc(NC(=O)c2sccc2C)n(-c2nc3ccccc3[nH]2)n1	-11%	.	4%	.	0%	0%	?	?
(listing goes on)
SMILES	LASV entry inh	Cruzain inh Det	NS1 inh	Cruzain noTriton	RE007 growth inh	SARS PLP yeast	StopGo reporter	Marburg entry inh
COc1ccc2nc(NCc3ccccc3)[nH]c2c1	?	-8.1%	5%	-15%	-6%	6%	34%[activator]	-23%
COc1ccc(CC(NC(C)=O)C(=O)NC2CCN(C(=O)NCc3ccccc3)CC2)cc1 (configuration not stated)	1%	-8.5%	-5%	-16%	13%	2%	48%[activator]	?
Cc1cc(C)c(C(=O)NC2CC(C)(C)Cc3c2cnn3-c2ccccc2)o1 (configuration not stated)	.	.	-33%	.	3%	-3%	-24%	.
CCOc1ccc2ccccc2c1CNCCc1ccc(S(N)(=O)=O)cc1	.	.	2%	.	-7%	5%	-5%	.
O=C(Nc1c(C(=O)c2ccccc2)oc2ccccc12)c1ccc(F)cc1	8%[46.1 µM]	-0.9%	.	13%	.	.	-21%	-17%[46.1 µM]
CC1Cc2ccccc2N1C(=O)CSc1nccc(=O)[nH]1 (configuration not stated)	-13%	.	3%	.	4%	-1%	-8%	-9%[46.1 µM]
O=C(c1cnn(-c2ccc(F)cc2)c1-n1cccc1)N1CCN(c2ccc(F)cc2)CC1	30%[46.1 µM]	-7.2%	.	?	.	.	?	.
COc1ccc(C2=C(Nc3ccc(C)cc3C)c3ccccc3C2=O)cc1	-8%[46.1 µM]	-11%	.	-19%	.	.	0%	-2%[46.1 µM]
COc1cc(OC)cc(C(=O)Nc2ccc(S(=O)(=O)Nc3nc(C)cc(C)n3)cc2)c1	-4%	.	3%	.	0%	1%	65%[activator]	1%[46.1 µM]
O=C(NCCN1CCN(c2cccc(Cl)c2)CC1)Nc1ccccc1	-14%[46.1 µM]	1.1%	-2%	-2%	-8%	-4%	-9%&-21%	-2%&-2%[46.1 µM]
CC(=O)N1CC[n+]2c(-c3ccc([N+](=O)[O-])cc3)csc21	6%[46.1 µM]	.	?	.	2%	0%	-21%	-25%[46.1 µM]
CN1c2ccccc2C(C)(C)C12CC(c1ccc(S(=O)(=O)N3CCCCC3)cc1)=NO2 (configuration not stated)	0.18µM*	-3.0%	15%	?	1%	-4%	4%	0.16µM*
N#CC1=C(N)OC2=C(CCc3ccccc32)C1c1ccccc1Cl (configuration not stated)	?	-7.6%	22%	?	-4%	7%	?	?
O=C(COC(=O)c1cc(S(=O)(=O)N2CCOCC2)ccc1F)Nc1c(Cl)cccc1C(F)(F)F	-2%	.	.	.	0%	2%	-16%	?
